# D2 agonist = Beta-Arrestin HTS for Positive Allosteric Modulators of the Human D2 Dopamine Receptor: Agonists; activation, % (test concentration not listed); 360,000 compounds, 0.084% hits; AID 624465, 2012; D(2) dopamine receptor (Homo sapiens), P14416; DiscoveRx PathHunter D2 beta-arrestin, luminescence, 90 min; 100% = 57 uM dopamine signal; in the data active = activation above about 40%; inconclusive = about 15% to 40%; inactive = below about 15%; also: compound concentration not given in the record; the text of the record calls up to 30% inactive
# Target sequence (P14416 whole entry, looked up): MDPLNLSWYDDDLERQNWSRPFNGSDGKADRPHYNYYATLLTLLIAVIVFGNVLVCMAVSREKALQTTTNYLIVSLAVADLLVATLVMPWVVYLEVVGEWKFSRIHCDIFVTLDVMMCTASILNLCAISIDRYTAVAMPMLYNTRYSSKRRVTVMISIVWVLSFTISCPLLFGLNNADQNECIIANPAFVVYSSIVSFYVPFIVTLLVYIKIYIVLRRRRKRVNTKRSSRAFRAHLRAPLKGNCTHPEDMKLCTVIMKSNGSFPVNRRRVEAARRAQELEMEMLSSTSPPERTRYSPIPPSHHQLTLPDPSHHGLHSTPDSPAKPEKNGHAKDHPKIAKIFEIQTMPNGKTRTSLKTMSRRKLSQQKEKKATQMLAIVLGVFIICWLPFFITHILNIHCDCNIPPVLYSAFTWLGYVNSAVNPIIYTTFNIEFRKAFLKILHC
#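 Agonist mode: compounds alone added to overnight-plated D2 PathHunter cells for 90 min at 37 C, with 57 uM final dopamine (EC100) defining full response. Beta-arrestin recruitment detected by chemiluminescent reagent, read after 1 h at ambient temperature.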
# gsp agonist = qHTS for Agonist of gsp, the Etiologic Mutation Responsible for Fibrous Dysplasia/McCune-Albright Syndrome: qHTS; 340,000 compounds, 0.13% hits; AID 624287, 2012; Potency, µM (top dose mostly 76.9 µM), inactives show at the highest dose activation (cAMP increase), usual class: activators; gsp mutant cells, cAMP HTRF, 30 min; control for the full effect not named in the record; active = well fitted activation curve with a large enough effect; inconclusive = small, poorly fitted or top-dose-only effect, or another doubt; inactive = no such curve, though single readings can be large or run the other way; cell line not stated here;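 also: phosphodiesterase inhibitor Ro 20-1724 added with compounds to block cAMP breakdown; potency is read from the fitted curve at half-maximal effect; nearly all actives have a fitted effect of over 60% in size; about a fifth of the inactives were tested at one dose only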
#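 Cells in DMEM/10% FBS with G418 were pretreated with compounds in DMSO plus […] (300 uM stock) for 30 min at 37C. cAMP was measured by HTRF (cAMP-d2 plus anti-cAMP antibody-K) after 30 min at room temperature.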
# Menin-MLL FL inh = qHTS Assay for Inhibitors Targeting the Menin-MLL Interaction in MLL Related Leukemias: Competition With Fluorescein Labeled MLL-derived Peptide; FP activity change, % at 61.4 µM; Fluorescence polarization, fluorescein-MLL peptide displacement from menin; 290,000 tested, under 10 active; inconclusive = falling polarisation curve, or a change in total fluorescence; inactive = total fluorescence flat and polarisation flat or rising; no compound was filed as active; the % refers to the polarisation; negative = inhibition;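 also: % of control where 0% means no effect; inhibitors lower the polarisation; unlabelled MLL peptide was the positive control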
# gsp antag = qHTS for Antagonists of gsp, the Etiologic Mutation Responsible for Fibrous Dysplasia/McCune-Albright Syndrome: qHTS; gsp-mutant cells, cAMP HTRF, 30 min; control for the full effect not named in the record; Potency, µM (highest dose often 76.9 µM), for the others: at the highest dose activity change, negative = inhibition, hits mostly inhibitors; 340,000 compounds, 0.4% hits; AID 624288, 2012; active = falling curve of any shape with a large fitted effect; inconclusive = falling curve, mostly with a smaller effect; inactive = flat or rising curve; cell line not stated here;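 also: intracellular cAMP measured with PDE inhibitor Ro 20-1724 present during compound exposure; potency is read from the fitted curve at half-maximal effect; % is scaled to controls: 0 for no effect and ±100 for the full control effect; nearly all actives have a fitted effect of over 65% in size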
#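 Cells in G418 medium, seeded 16-24 h, 37C; buffer exchange to DPBS + 1 mM CaCl2, 0.5 mM MgCl2, 0.05% BSA; cpds in DMSO + […] (300 uM stock), 30 min 37C; HTRF cAMP detection.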
# PINK1 expr mod = A Quantitative High throughput Screen to Identify Chemical Modulators of PINK1 Expression. PINK1 immunofluorescence, high-content cytometry, 24 h. Potency, µM (top dose mostly 76.6 µM), for the others: at the highest dose activation (PINK1 increase), hits mostly activators. AID 624263, 2012. 410,000 compounds, 0.2% hits; active = well fitted activation curve with a large enough effect; inconclusive = small, poorly fitted or top-dose-only effect; inactive = flat fitted curve, though single readings scatter; cell line not stated here;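 also: potency is read from the fitted curve at half-maximal effect; % of control where 0% means no effect; nearly all actives have a fitted effect of over 65% in size; a mitochondrial uncoupler was the plate control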
#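 A stable cell line was treated with compounds at 5 concentrations for 24 hours, with CCCP as control. PINK1 levels and mitochondrial localization were measured by immunofluorescence with mitochondrial, cell and nuclear markers after fixation, read by laser-scanning cytometry.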
# Sfp inh = qHTS Assay for Inhibitors of Bacillus subtilis Sfp phosphopantetheinyl transferase (PPTase) | 310,000 compounds, 3.5% hits | Biochemical Sfp PPTase activity, qHTS | Potency, µM, for inactives: max response, negative = inhibition, hits mostly inhibitors; active = well fitted inhibition curve with a large enough effect; inconclusive = small, poorly fitted or top-dose-only effect, or another doubt; inactive = no such curve, though single readings can be large or run the other way;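 also: the enzyme is Sfp with the accession as filed and its product quenches rhodamine fluorescence; potency is read from the fitted curve at half-maximal effect; 0% = enzyme reaction without inhibitor and -100% = no enzyme wells; top concentration of the series not given in the record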
#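 Compounds were incubated with enzyme (final 15 nM) for 15 min at room temperature before substrate addition started the reaction. Fluorescence at 525 nm excitation, 598 nm emission was recorded immediately and after 30 minutes.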
# ClpP mod = qHTS Assay for Activators of ClpP. purified B. subtilis ClpP, FRET peptide cleavage, 20 min. ATP-dependent Clp protease proteolytic subunit (Bacillus subtilis (strain 168)), P80244. 340,000 compounds, 1.9% hits. Potency, µM (top dose mostly 57.5 µM), inactives show at the highest dose activity change, negative = active; active = well fitted falling curve with a large enough effect; inconclusive = small, poorly fitted or top-dose-only effect; inactive = no such curve, though single readings can be large or run the other way; also: potency is read from the fitted curve at half-maximal effect; the source files actives as falling curves though it sought activators and does not explain the sign; nearly all actives have a fitted effect of over 65% in size; many hits overshoot -100%
# Target sequence (P80244 whole entry, looked up): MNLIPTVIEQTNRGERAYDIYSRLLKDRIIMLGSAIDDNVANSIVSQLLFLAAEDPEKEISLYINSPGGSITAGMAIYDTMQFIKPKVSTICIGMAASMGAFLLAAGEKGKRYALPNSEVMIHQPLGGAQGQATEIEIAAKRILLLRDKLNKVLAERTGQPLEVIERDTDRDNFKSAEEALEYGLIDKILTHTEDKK
#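 ClpP 10 microg/mL final, pH 8 Tris/KCl buffer with BSA, glycerol, Tween-20; compound pinned in; FRET-FV substrate; RT 20 min; Ex320/Em430; ΔFRET vs ADEP 5.8 microM, DMSO, no enzyme.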
# Starred values were filed as active, the others as inactive; ? = inconclusive; / = not tested or not shown; & = joins results of further samples; [ ] = remark or other dose.
canonical_smiles	D2 agonist	gsp agonist	Menin-MLL FL inh	gsp antag	PINK1 expr mod	Sfp inh	ClpP mod
C[C@H](CO)N1C[C@H](C)[C@@H](CN(C)C(=O)NC2CCCCC2)Oc2ccc(NC(=O)NC3CCCCC3)cc2C1=O	1.0	-3%	/	9%	-1.2%	/	0.1%
Nc1nc(SCC(=O)NCC2CCCO2)[nH]c(=O)c1NC(=O)c1ccco1 (configuration not stated)	-4.7	-25%	-3.2	-2%	0.3%	6%	0.1%
c1ccc(Oc2nc(N3CCOCC3)nc(N3CCOCC3)n2)cc1	-3.6	?	-0.3	-1%	1.1%[38.3 µM]	17%	-1.0%
N#Cc1cnc(N)c(Br)c1	-1.5	2%	-0.1	-4%	0.1%	5%	/
CC(C)=CCC/C(C)=C/CNC(=O)CC1C[C@H](C(=O)N2CCOCC2)[C@@]2(C)c3[nH]c4ccccc4c3CCN2C1=O (some centres not stated)	2.0	/	/	-5%	-0.3%	/	1.1%
CC(C)(C)/C(O)=C/c1nc2ccccc2[nH]c1=O	-5.0	13%[15.4 µM]	-1.4	5%	6.2%	?	-1.7%
O=[N+]([O-])c1ccc(Nc2ccccn2)c([N+](=O)[O-])c1	8.8	23%	-21	6%	-0.7%	2%	/
CN(Cc1ccccc1)S(=O)(=O)c1ccc(Cl)c(C(=O)N2CCC2)c1	0.9	?	/	9%	-0.2%	/	-2.8%
CCNC(=S)Nc1cc(C)ccn1	-2.3	6%[15.4 µM]	13	-8%	1.2%	?	-3.0%
CCOC(=O)N1CCN(CC(O)COc2ccc(C)c(C)c2)CC1 (configuration not stated)	0.4	9%	-2.9	11%	-2.8%	7%	-0.6%
Cn1ccnc1SCC(=O)Nc1nc2ccccc2s1	-4.6	-124%[inhibitor]	2.8	2%	0.8%	17%	-0.3%
CCCNC(=O)c1ccc2c(c1)C1C3CCC(C3)C1C(c1ccccc1)N2 (configuration not stated)	-4.3	-26%	-0.5	-19%	1.2%	-1%	?
COc1ccccc1CN(C)C(=O)c1ccccc1SCC(=O)N1CCCC1	-1.7	-36%[inhibitor]	/	6%	1.7%	/	-1.5%
c1ccc2c(-c3cncc4ccccc34)cncc2c1	5.2	-6%	/	1%	0.8%	/	/
CCOc1ccc(-c2nc(C#N)c(N3CCCCCC3)o2)cc1	1.7	?	4.3	-22%	0.1%	?	5.5%
O=C(CNC(=O)C1CCCCC1)OCC(=O)c1ccc(Br)cc1	-5.0	1%	-0.4	-6%	0.4%&-0.3%	16%	1.1%&-0.6%
O=C(COC(=O)Cn1nnc(-c2ccccc2)n1)Nc1cc(F)ccc1F	-0.1	-13%	/	5%	0.7%	/	-1.9%
CC[C@]12c3[nH]c4ccc(OC)cc4c3CCN1C(=O)C(CC(=O)NCc1ccco1)C[C@@H]2C(=O)N1CCN(C(=O)c2ccco2)CC1 (some centres not stated)	-1.3	/	/	9%	-1.0%	/	1.0%
O=[N+]([O-])c1cccc(C2=NC(c3ccccc3)CO2)c1 (configuration not stated)	-1.8	6%	-1.8	-8%	-0.2%	1%	-3.5%
Cc1ccc(CN2CCN(C(=O)CCc3ccccc3)CC2)cc1	-1.7	-1%[15.4 µM]	0.4	12%	-1.2%	12%	-4.3%
COc1ccccc1N1C(=O)C2C(c3ccc(F)cc3)NN(C(=O)c3ccc(C)cc3)C2C1=O (configuration not stated)	-2.1	20%	1.0	-14%	-0.5%	-3%	-1.8%
CC1CC(C)CN(C(=O)COC(=O)Cc2ccc(Br)cc2)C1 (configuration not stated)	-1.0	12%	-0.8	4%	1.8%	-17%	/
COc1ccccc1CC(=O)N1CCC(CCC(=O)NC2CC2)CC1	-1.8	-33%[inhibitor]	/	-7%	-0.6%	1%	-0.9%
COc1ccc(CNc2nc(NCc3ccc(OC)cc3)c3[nH]cnc3n2)cc1	6.0	-2%	3.1	-6%	2.2%	10%	-15%
CCOC1=C2[C@@H](CN(S(=O)(=O)c3ccc(C)cc3)[C@H]2c2ccccc2F)[C@H]2C(=O)N(Cc3ccccc3)C(=O)[C@H]2C1	-3.5	/	/	/	0.3%	/	-6.0%

canonical_smiles	D2 agonist	gsp agonist	Menin-MLL FL inh	gsp antag	PINK1 expr mod	Sfp inh	ClpP mod
O=C(NCc1ccccn1)c1cc(S(=O)(=O)N2CCCCCC2)ccc1Cl	-1.7	?	-1.4	-2%	3.4%	20%	-2.5%
COc1cc2ccccc2cc1C(=O)Nc1ccncc1	2.1	10%[15.4 µM]	/	-10%	1.6%	/	/
CCOCC(=O)Nc1nnc(COc2ccc(Cl)cc2)s1	-5.0	-13%[15.4 µM]	-0.5	-3%	1.1%	28µM*	1.6%
COc1ccc(CCNC(=S)Nc2ccc(S(=O)(=O)Nc3ncccn3)cc2)cc1OC	-2.7	?	-6.2	5%	-0.2%	15%	-0.5%
CCOc1cc(C(=O)NCCCn2ccnc2)cc(OCC)c1OCC	-2.0	-26%	1.0	-1%	-1.4%	9%	-1.3%
O=C(NCc1ccccc1)C1(C(F)(F)F)CC(CCCO)CCCO1 (configuration not stated)	1.7	/	-1.1	6%	-0.3%	7%	0.5%
O=C(CSc1nnc(-c2ccncc2)n1Cc1ccccc1)NC1CCCCC1	-2.9	-17%	3.6	-4%	-1.7%	6%	0.8%
COc1ccccc1-c1nc(N(C)Cc2ccco2)c2ccccc2n1	/	/	-2.2	/	1.8%	5%	/
COc1ccccc1C(=O)NCCC(=O)Nc1ncccc1C	0.5	-16%	/	2%	1.2%	-9%	-4.6%
O=C1NC(=O)c2cc(NC(=O)c3cccc4ccccc34)ccc21	-3.7	-21%	7.5	-5%	3.9%	3%	4.7%
CCCCn1c(=O)[nH]c(=O)c2c1nc(-c1ccsc1)n2Cc1ccccc1	-5.4	-11%	1.0	-2%	4.9%	-6%	-30%
COc1ccc(-c2cc(CNS(=O)(=O)c3ccccc3)on2)cc1	1.4	-1%	8.8	-13%	-0.9%	-5%	/
CC(OC(=O)c1cccs1)C(=O)NC1CC1 (configuration not stated)	2.7	-8%	0.4	5%	-0.8%	1%	/
O=C1CCC(C(=O)N2CCOCC2)CN1Cc1ccc(Cl)cc1 (configuration not stated)	2.4	-2%	-2.4	1%	3.5%	-2%	-0.5%
CC(C)(C)c1nnc(NC(=O)COc2ccc3c(c2)OCO3)s1	-0.4	-7%[15.4 µM]	/	1%	2.1%	/	-4.1%
Cc1ccc2c(c1)c(C)cc(=O)n2CCC(=O)O	-0.1	-13%	5.1	-9%	/	20%	-23%
Cc1cc(OC(=O)c2ccccc2Cl)cc(=O)n1C	-0.5	-18%	-2.4	40µM*	5.9%	-8%	4.4%
CC(/C=C1\SC(=S)N(NC(=O)c2ccc(C)cc2)C1=O)=C\c1ccccc1	-1.3	-17%	19	5%	?	-8%	-1.2%
CCNC(=O)COC(=O)C1C(C(=O)OCC)=C(C)NC(C)=C1C(=O)OCC	-2.5	-1%	8.6	6%	1.1%	3%	-19%
CN1CCN(c2ncncc2-c2cccnc2)CC1	/	/	-3.5	/	2.0%	-5%	/
COc1ccc(NC(=O)c2c(Cl)nc3ccccn23)cc1	0.9	17%	1.4	15%	-0.1%	18%	/
Cc1ccc(Sc2cc(NCCCO)c([N+](=O)[O-])c3nonc23)cc1	-4.3	-13%	-21	-15%	24%	-24%	0.6%
CCCC(=O)N1CCc2[nH]c3ccccc3c2C1	-0.1	31%	-18	-6%	-2.7%	-28%	-3.8%
O=C(C1=C[C@H](c2csc3ccccc23)C[C@H](OCCCCO)O1)N1CCN(Cc2ccccc2)CC1	3.6	/	-1.4	-9%	-0.9%	?	-2.2%
Cc1ccc(O)c(C(=O)CC(=O)c2ccc(C(C)(C)C)cc2)c1	-8.4	4%	-6.5	5%	?	7%	1.1%

canonical_smiles	D2 agonist	gsp agonist	Menin-MLL FL inh	gsp antag	PINK1 expr mod	Sfp inh	ClpP mod
CCn1c(SCC(=O)Nc2nccs2)nnc1C1CC1	-3.2	3%	0.4	3%	0.8%	5%	-2.1%
c1ccc(CSc2nc3ncncc3[nH]2)cc1	-2.8	?	-0.4	5%	0.2%	16%	-0.2%
CCCN(CCC)CCCNC(=O)C1c2cc(OC)c(OC)cc2C(=O)N(C)C1c1cccs1 (configuration not stated)	-5.6	22%	-2.5	10%	-4.5%	-10%	-9.6%
O=C(N[C@@H](Cc1ccccc1)C(=O)O)c1ccncc1	-1.5	2%	-3.8	10%	2.1%	5%	0.0%
O=C(Nc1ccc(Cl)cc1)c1cccc(N2C(=O)C3C4CCC(C4)C3C2=O)c1 (configuration not stated)	-2.3	18%	4.9	-23%	2.3%	6%	-2.6%
CC1CN(S(=O)(=O)c2ccc(F)cc2)CN1C(=O)N1CCOCC1 (configuration not stated)	-4.0	11%[15.4 µM]	1.7	11%	2.7%	8%	/
O=Cc1ccc(OCc2nnc(-c3ccccc3Br)o2)cc1	0.1	19%	5.2	-10%	-0.5%	-5%	/
COc1cc(NC(=O)c2ccc(Cl)cc2)c2ncccc2c1	1.2	19%	-1.6	9%	2.9%	15%	3.2%

# Structures listed above that bear a hit mark in Sfp inh.
SMILES,D2 agonist,gsp agonist,Menin-MLL FL inh,PINK1 expr mod,Sfp inh
CCOCC(=O)Nc1nnc(COc2ccc(Cl)cc2)s1,-5.0,-13%[15.4 µM],-0.5,1.1%,28µM*

# Assay outcomes deposited in PubChem by National Center for Advancing Translational Sciences (NCATS).
